# NPYLR7 ag – mosquito NPYLR7 agonism | HEK293T NPYLR7/Galpha15, GCaMP6s calcium fluorescence | activation, % at 10 µM | actives 0.15% (n = 270,000) | AID 1259423; in the data active means activation above about 40%;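 further: 0% = vehicle and 100% = reference agonist at the receptor; some compounds past the cut are filed as inactive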
# NPYLR7 ag max-min – recorded beside NPYLR7 ag, whose call it bears; activation, %; measured here: Max-Min RFU normalised activation; some inactives read as strong as hits;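 span of the calcium signal over five minutes; 0% = vehicle and 100% = native peptide agonist; compound fluorescence can raise it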
# * marks the source's active call; other numbers are inactive results; & = joins results of further samples.
SMILES,NPYLR7 ag,NPYLR7 ag max-min
CCCOC1CCCN(C(=O)c2oc3c(F)cccc3c2C)C1 (stereo not given),4.8,1.4
CCCCOc1ccc(C(=O)Nc2cccc(C3SCC(=O)N3c3cccc(OC)c3)c2)cc1 (stereo not given),9.5,15.1
Cc1nccc(CNC(=O)NC(C)CCc2cccn2C)n1 (stereo not given),6.4,4.6
Cc1ccc(-c2nnn(CC(=O)NC3CCCCC3C)n2)cc1 (stereo not given),-0.6,3.9
CCCCN(C)S(=O)(=O)c1ccc(NC(=O)c2ccc(OC)nc2)cc1,1.7,-1.7
COc1cccc(CCNC(=O)C2CC23CCN(C(=O)C2(c4ccccc4)CCCCC2)CC3)c1 (stereo not given),1.6,-1.2
CNS(=O)(=O)c1cc(C(=O)N2CC(C)CCCC2C)n(C)c1 (stereo not given),-0.7&6.1,-1.0&3.6
CCCCCCCC1C2=C(CCCC2=O)OC(=N)C1C#N (stereo not given),6.6,8.0
O=C(NN=Cc1ccc(O)cc1)c1cc(-c2cccc3ccccc23)n[nH]1,1.4,3.8
CC(NC(=O)c1ccc(Cl)o1)c1ccc(C(F)(F)F)cc1 (stereo not given),7.3,4.0
COc1cc(C=NNC(=O)COc2ccc3ccccc3c2)ccc1O,3.2,-2.1
C=CCN(CC(=O)N1CCc2sccc2C1COc1ccc(Cl)c(C)c1)C(=O)c1ccccc1F (stereo not given),-0.9,4.9
CCOc1ccc(-c2nc(Cn3nnc(C(=O)Nc4ccccc4C)c3C)c(C)o2)cc1,6.3,4.3
CN(CCC1CCOC1=O)Cc1ccccc1Cl (stereo not given),-3.5,-7.0
COc1cc(Cl)cc(CN2CCN(c3ncnc(C)c3C)CC2)c1OC,-1.7,-2.5
CCC(C)CN(CC(=O)N1CCc2sccc2C1COc1ccc(C)cc1C)C(=O)Nc1cccc(Cl)c1 (stereo not given),-1.6,5.6
Cc1cc2c([nH]c3ccccc32)c(C)n1,7.6,12.4
CCc1cc(N2CCN(Cc3ccccc3)CC2)nc(SCc2ccc(C(=O)O)o2)n1,14.3,10.6
COc1ccc(OCCSC2=Nc3ccccc3C3CC=NN23)cc1 (stereo not given),-0.8,-6.1
CCOC(=O)c1ccc(NC(=S)N2CC(=O)N3CCc4cc(OC)c(OC)cc4C3C2)cc1 (stereo not given),36.5,24.7
Cc1nc2ncc3c(=O)n(Cc4cccnc4)ccc3n2n1,8.2,14.9
Cc1cc(C)c(S(=O)(=O)N2CCC3(CC2)NC(=O)c2cccc(C)c2N3)c(C)c1,1.4,9.3
O=C(c1ccccc1F)N1CCC2(CC1)OCCCO2,-8.3,-11.9
CCc1cc(=O)[nH]c(-n2nc(C)cc2NC(=O)C(C)C)n1,3.3,-2.5
CCc1nc(C2CCCN2C(=O)c2cc3c([nH]c2=O)CCCC3)no1 (stereo not given),3.0,3.2
Cc1noc(-c2ccco2)c1C(=O)N(C)CCc1ccccn1,7.3,11.0
O=C(NC1CC1)C(c1ccccc1)N1CCN(S(=O)(=O)c2ccccc2Cl)CC1 (stereo not given),-6.4,-6.1
COc1ccc(C(=O)N(CC(C)C)CC(C)C)c(OC)n1,-0.1,9.5
CS(=O)(=O)c1ccccc1C(=O)N(CCCN1CCOCC1)c1nc2ccc(F)cc2s1,-2.7,-7.3
Cc1noc(C)c1C1CCCN1C1CCN(c2ccc3c(c2)OCO3)CC1 (stereo not given),-0.3,-3.5
CCCCn1c(N)c(N(CC(C)C)C(=O)C2CC(=O)N(c3ccc(C)c(F)c3)C2)c(=O)[nH]c1=O (stereo not given),11.0,13.3
O=C(c1cccc(N2CCOCC2)c1)N1CCCC(N2CCOCC2)C1 (stereo not given),22.9,6.0
c1cncc(OC2CCN(Cc3nc(-c4cnccn4)no3)CC2)c1,8.1,2.6
CCOc1ccc(-c2ccc(=O)n(CCNC(=O)c3ccccc3C(F)(F)F)n2)cc1,7.9,5.8
CCOC(=O)c1cc(-c2cccc(NC(=O)Cc3cccs3)c2)n(-c2ccc(OC)cc2)n1,25.0,14.1
COc1ccc(F)c(-c2c[nH]c(=O)[nH]c2=O)c1,-1.2,10.8
CC1(Cc2ccc3c(c2)OCO3)C(=O)Nc2ccc(-c3cccc(C(F)(F)F)c3)cc21 (stereo not given),3.4,3.7
CCc1ccc(-c2nccn2CC2CCCN(C)C2)cc1 (stereo not given),8.2,0.9
Cc1cc(-c2nn(-c3ccccc3F)cc2CN2CCC(C(N)=O)CC2)c(C)s1,0.9,-2.4
COC[C@@H]1CCCN1C(=O)c1ccc(-n2nc(-c3ccc(Cl)cc3)cc2N)cc1,12.5,5.9
O=C(Cc1ccc(F)cc1)NC1CCN(C(=O)c2cn(-c3cccc(F)c3)nn2)CC1,-10.5,-12.8
c1ccc(-n2cc(CN3CCn4cncc4C3)c(-c3ccncc3)n2)cc1,8.7,6.3
Cc1ccc(NS(=O)(=O)c2c(N)n(C)c(=O)n(C)c2=O)cc1Cl,0.0,-2.4
CC(=O)NCc1ccc(C(=O)N2CCCCCC2c2ccco2)cc1 (stereo not given),9.0,8.0
O=C(CCNc1cn[nH]c(=O)c1Cl)Nc1ccc(Br)cc1,2.4,-0.5
COc1ccc(CCNC(=O)CSc2ncnc3sc(C)cc23)cc1OC,-12.5,-11.7
CC(c1nccs1)N(C)C(=O)c1cccc(NCc2cccs2)c1 (stereo not given),-5.2,-5.9
O=C(c1ccc(F)cc1C(F)(F)F)N1CCN(c2nc3nccc(-c4cccs4)n3n2)CC1,-0.7,-3.2

# An excerpt of these results, bar-delimited.
canonical_smiles | NPYLR7 ag | NPYLR7 ag max-min
Cc1nccc(CNC(=O)NC(C)CCc2cccn2C)n1 (stereo not given) | 6.4 | 4.6
Cc1ccc(-c2nnn(CC(=O)NC3CCCCC3C)n2)cc1 (stereo not given) | -0.6 | 3.9
CCCCN(C)S(=O)(=O)c1ccc(NC(=O)c2ccc(OC)nc2)cc1 | 1.7 | -1.7

# Next structures follow.
SMILES,NPYLR7 ag,NPYLR7 ag max-min
Cc1ccc(-c2csc(NC(=O)Cc3ccccc3)n2)cc1C,-4.8,-11.6
Cc1ccc(S(=O)(=O)NCCc2csc3nc(-c4cccs4)nn23)cc1C,-0.7,-2.5
CCc1nc2ccc(C(=O)N3CCN(C(C)=O)CC3)cn2c1N(C)C(=O)C1CCCCC1,-6.0,-10.4
COC(=O)Cn1c(=O)c2c(nc3n(-c4ccccc4)c(C)c(C)n23)n(C)c1=O,5.6,1.0
COCc1nc(CN2CCOC(c3ccc(Cl)cc3)C2)no1 (stereo not given),-1.3,8.9
CSc1nnc2c(n1)OC(C)(C)Nc1ccc(Br)cc1-2,4.5,3.0
CCCCn1c(=O)c2oc3ccccc3c2n(CC(=O)Nc2cc(Cl)ccc2C)c1=O,2.4,12.2
Cn1cccc1C(=O)NC(=O)CSc1nnc(C2CCCCC2)o1,2.1,15.3
O=C(c1ccc(F)cc1F)N1CCC(c2nc(-c3ccc4c(c3)OCO4)no2)CC1,11.4,6.2
O=C(/C=C/c1nccs1)Nc1ccccc1NCC(F)(F)F,7.2,5.5
c1ccc(-c2cnnc(NCC3CCCN(c4ncccn4)C3)n2)cc1 (stereo not given),-0.9,-2.5
Cc1nc2cc(C(F)(F)F)ccc2n1C1CCN(C(=O)C2CCCO2)CC1 (stereo not given),-3.7,-12.0
Brc1cccc(-c2ccc(CNCc3cccnc3)o2)c1,8.4,-0.6
CCCOc1nn(CCC)cc1C(=O)N1CCCC1,-14.6,-18.8
COc1ccc(Cl)c2sc(N(Cc3ccncc3)C(=O)c3cc(C)no3)nc12,2.6,2.7
COc1ccc(C2Nc3ccccc3N=C3CC(c4ccccc4)CC(=O)C32)cc1 (stereo not given),-8.0,-8.7
CC[N+](C)(CC)CCOC(=O)C1c2ccccc2Oc2ccccc21,10.5,-3.1
CN(CCCN1C(=O)[C@H]2CC=CC[C@H]2C1=O)c1ccccc1,-6.8,-14.8
O=C(CNS(=O)(=O)c1ccc(Br)s1)NC1CCCCC1,-0.3,0.2
COc1ccc(-c2c(NC(=O)C3CCCCC3)oc3ccccc3c2=O)cc1,4.7,7.1
O=C1C(Cl)=CC(=NS(=O)(=O)c2ccccc2)C(Cl)=C1Cl,-7.3,-7.8
COc1ccc(NC(=O)N2CCN(c3nccs3)CC2)cc1Cl,-0.4,-2.1
COc1ccc(NC(=O)C2CCCN2S(=O)(=O)c2ccc(Cl)s2)c([N+](=O)[O-])c1 (stereo not given),3.5,3.6
O=C(/C=C/c1ccc([N+](=O)[O-])cc1)Nc1nc(-c2ccccc2)cs1,-6.2,-12.3

# Already shown: 5 of the compounds above.
SMILES,NPYLR7 ag,NPYLR7 ag max-min
O=C(CNS(=O)(=O)c1ccc(Br)s1)NC1CCCCC1,-0.3,0.2
COc1ccc(-c2c(NC(=O)C3CCCCC3)oc3ccccc3c2=O)cc1,4.7,7.1
O=C1C(Cl)=CC(=NS(=O)(=O)c2ccccc2)C(Cl)=C1Cl,-7.3,-7.8
COc1ccc(NC(=O)N2CCN(c3nccs3)CC2)cc1Cl,-0.4,-2.1
COc1ccc(NC(=O)C2CCCN2S(=O)(=O)c2ccc(Cl)s2)c([N+](=O)[O-])c1 (stereo not given),3.5,3.6

# Next records
SMILES,NPYLR7 ag,NPYLR7 ag max-min
COCCn1c(C)cc(C(=O)CSc2ncnc3sc(C)c(C)c23)c1C,-7.0,-13.8
CC1C(=O)N(c2ccc(Cl)cc2)CCN1C(=O)c1cccs1 (stereo not given),-1.6,6.3
Cc1cc(S(N)(=O)=O)cc(C)c1O,1.7,1.6
O=C(Cc1ccc2c(c1)OCO2)NC1CCc2cc(Cl)ccc21 (stereo not given),7.5,2.6
CCC(C)N(Cc1c(-c2ccc(F)cc2)noc1N1CCOCC1)C(=O)c1ccc2c(c1)OCO2 (stereo not given),4.5,9.1
O=C(COCc1ccccc1)N(CC(=O)N1CCc2sccc2C1c1ccc(Cl)cc1Cl)CC1CCCO1 (stereo not given),4.2,2.5
CC(Oc1cccc(Cl)c1)C(=O)Nc1n[nH]c(-c2ccccc2)n1 (stereo not given),5.4,0.1
Cc1ccc(Nc2nc(-c3cc4c(ccc5ccccc54)oc3=O)cs2)cc1,5.1,7.1
O=C(CCn1c(=O)oc2ccccc21)OCC(=O)c1ccc(Br)cc1,-12.7,-13.0
CC(C)c1csc(CN2CCCC(CNS(=O)(=O)Cc3ccccc3)C2)n1 (stereo not given),14.7,2.3
COc1cc(C(=O)NNC(=O)c2ccccc2Br)cc2c1OCCO2,2.3,-0.5
c1ccc(Nc2ccccn2)cc1,5.9,3.1
Cc1ccc(-c2cc3c(=O)n(Cc4nc(-c5ccc(C)cc5)no4)ccn3n2)cc1,-5.6,-11.1
C=Cc1ccc(CSc2nncn3c2cc2occc23)cc1,3.6,-0.5
CCOc1ccccc1NC(=O)CC(=O)N(C)C1CCN(C)C1 (stereo not given),2.7,1.7
C=C(C)Cn1c(N2CCCCC2C)nc2c1c(=O)[nH]c(=O)n2C (stereo not given),2.6,0.8
O=C1Nc2ccccc2C1=NN1C(=O)c2ccccc2C1=O,-6.7,-11.6
CCOC(=O)N1CCN(c2ccc(/C=C(\C#N)c3nc4ccccc4n3C)o2)CC1,341.7*,401.1*
O=c1ccc(-c2ccco2)nn1CCNS(=O)(=O)c1ccc(C(F)(F)F)cc1,-0.9,-1.9
O=C(Cc1ccc2c(c1)OCCO2)Nc1ccccc1N1CCCCC1,1.0,-1.2
COc1cc2nc(-c3ccc(C)o3)cc(C(=O)NCc3ccc(SC(F)(F)F)cc3)c2cc1OC,14.1,8.4
CCc1nn(C(CC)C(=O)NC(C)C)c(=O)c2cc3occc3n12 (stereo not given),1.4,3.0
COc1ccc(Cl)cc1NS(=O)(=O)c1cccc(Br)c1,4.3,4.1
COCCN1CCC(NC(=O)Nc2cccc(-n3ccc(C)n3)c2)C1 (stereo not given),3.1,1.7

# Compounds above with a cyano group, in the order listed:
SMILES,NPYLR7 ag,NPYLR7 ag max-min
CCCCCCCC1C2=C(CCCC2=O)OC(=N)C1C#N (stereo not given),6.6,8.0
CCOC(=O)N1CCN(c2ccc(/C=C(\C#N)c3nc4ccccc4n3C)o2)CC1,341.7*,401.1*

# (continued)
SMILES,NPYLR7 ag,NPYLR7 ag max-min
Cc1cccc(CN2CCC(NC(=O)N3CCc4ccccc43)CC2)c1,-16.8,-21.1
Cc1ccc(OCCNC(=O)Cc2c(C)nc3nc(N)nn3c2C)c(C)c1,-6.0,5.7
Cc1nn(CCNC(=O)C[C@@H]2C[C@@H]3C=C[C@H]2C3)c(C)c1Cl,4.2,2.9
CN1C(=O)c2ccccc2N2C(=O)CCC12C(=O)OCN1C(=O)c2ccccc2C1=O (stereo not given),4.8,3.0
Cc1cc(OCC(=O)O)no1,-2.7,-2.8
CCN1CCN(C(c2ccc(Cl)cc2)C2Sc3nc(-c4ccco4)nn3C2=O)CC1 (stereo not given),-4.0,-5.2
CN(Cc1cc(-c2ccncc2)no1)Cc1cc2ccccc2o1,0.6,-0.4
COC(=O)c1ccc(C(=O)N2CCc3cc(OC)c(OC)cc3C2c2c(F)cccc2Cl)cc1 (stereo not given),3.3,3.4
COc1cc(OC)c(C2=CCN(S(=O)(=O)c3ccc4[nH]c(=O)[nH]c4c3)CC2)c(OC)c1,11.3,3.5
O=C(NCc1cccnc1N1CCCCCCC1)C(O)c1ccc(F)cc1 (stereo not given),10.1,7.6
Cc1ccc(-c2cnnn2-c2nonc2N)cc1,-1.6,-3.5
Cc1noc(-c2ccc(C(C)(C)C)cc2)c1C(=O)NCCCN1CCOCC1,7.4,16.3
O=C(Nc1cc(Cl)cc(Br)c1OC(F)F)C1CC1,0.4,-2.0
Cc1cccc(C(=O)NC(=NC2CCCc3ccccc32)OC(C)C)c1 (stereo not given),-4.6,2.6
O=C(c1cc(-c2ccco2)nn1-c1ccc(Cl)cc1)N1CCC(Cc2ccccc2)CC1,-1.0,8.4
O=C(CCN1CCOCC1)N1N=C(c2ccccc2)CC1c1cccc([N+](=O)[O-])c1 (stereo not given),9.7,13.1
O=C(Nc1ccccc1)Nc1cccc(-c2cn3cccnc3n2)c1,8.1,9.4
N#Cc1ccc(C2CC(c3ccc(F)cc3)=Nc3nc(C(F)(F)F)nn32)cc1 (stereo not given),7.4,5.7
CCOC(=O)C1CCN(C(=O)c2cccc(CSc3nc(C(C)C)cc(N4CCOCC4)n3)c2)CC1,6.7,6.9

# Not all compounds are listed, so the mix of outcomes need not match the whole.
